Screening results as filed in PubChem BioAssay.
Proteasome disasm – inhibitors of ATP-driven 26S proteasome dissociation, primary screen, biochemical, bead-based flow cytometry, GFP-tagged proteasome. inhibition of disassembly, % (concentration not given with the values). anti-FLAG beads, GFP-proteasome disassembly. hit rate 0.2% among 24,000. AID 751, 2007;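 active = above 40%; inconclusive = likely self-fluorescent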;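 note: plate controls were ATP control with full disassembly for no effect and ATP-gamma-S intact proteasomes for full effect; higher percent means more bead fluorescence retained so stronger block of disassembly; stock transfer was 100 nL into about 10 µL; wells with too few beads may also be inconclusive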
VCAM-1 rise – enhancers of VCAM-1 display on endothelial cells, cell-based, plate reader, pooled HUVEC, TNFa stimulus (AID 455); HUVEC TNFa-induced VCAM-1 immunofluorescence, plate reader; numbers were filed only for top-ranked candidate wells; augmentation, % at 5 µM; hit rate 0.2% among 10,000;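 active = a compound raising TNF-alpha-driven VCAM-1 surface staining, with its hit status upheld on visual or statistical review; inactive = the rest, including hits rejected on review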;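 note: 0% = TNFa with vehicle and 100% = strongest image-checked hit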
* marks the source's active call; other numbers are inactive results; i = inactive; ? = inconclusive; · = no result given. An excerpt, so the mix of outcomes need not match the whole.

Proteasome disasm | VCAM-1 rise | Structure
0.0 | · | COc1ccc(C(=O)NC(C)c2nc3ccccc3n2C)cc1OC (stereo unspecified)
-6.3 | · | Cc1cc(Nc2cc(C(=O)O)ccc2C)n2ncnc2n1
-1.4 | · | CCOc1cc2[nH]c(=S)n(CCCOC)c(=O)c2cc1OCC
0.2 | · | C=CCn1cc(C(=O)NCCCOC)c(=O)c2cc(S(=O)(=O)N3CCC(C)CC3)ccc21
1.8 | · | O=C(CN1CCN(Cc2ccc(F)cc2)C1=O)NCc1cccs1
3.3 | i | Cc1ccccc1-c1nc(CN2CCC(C(=O)NCc3cccnc3)CC2)c(C)o1
3.2 | i | Cc1ccc(Nc2nnns2)cc1C
-0.8 | · | CC1(C)OC(=O)C(=CNC(Cc2c[nH]c3ccccc23)C(=O)O)C(=O)O1 (stereo unspecified)
0.6 | i | Cc1c(C(=O)NCc2ccccc2)oc2c1C(=O)CCC2
-1.4 | i | O=C(c1ccc2c(c1)OCO2)N1CCNc2ccccc2C1
2.0 | i | CCCC(=O)N(Cc1cc2ccccc2[nH]c1=O)c1ccccc1OC
-0.5 | · | CCn1ncc(C(=O)Nc2ccc(S(=O)(=O)N3CCCC3)cc2)c1C
1.3 | · | COc1ccc(C2=CSC3=NCCN23)cc1F
5.1 | · | O=C(CC1SC(=Nc2ccccc2)N(CCCO)C1=O)Nc1ccc(Cl)cc1 (stereo unspecified)
0.4 | · | O=C(CCCNS(=O)(=O)c1cccc2nsnc12)NCc1ccccc1
-1.6 | i | COC(=O)c1ccc(NC(=O)C2CC(=O)N(c3cc(C)ccc3C)C2)cc1 (stereo unspecified)
-5.0 | · | Cc1ccc(N(CC(=O)NC2CCC(C)CC2)S(=O)(=O)c2cccnc2)cc1 (stereo unspecified)
0.2 | · | Cc1ccc(-c2nc(CSCC(=O)N3CCCC3)c(C)o2)cc1
1.2 | · | Cc1cc(S(=O)(=O)N2CCCC2)c(C)s1
-3.0 | i | Cc1nc2cc(NC(=O)N3CC4(C)CC3CC(C)(C)C4)ccc2n1C (stereo unspecified)
-0.8 | i | CCCc1cc(=O)oc2c(C)c3occ(C)c3cc12
1.0 | · | Cc1n[nH]c(C)c1S(=O)(=O)N1CCCC(C(=O)NCC2COc3ccccc3O2)C1 (stereo unspecified)
0.2 | · | Cc1cc(NC(=O)CSc2nnc(COc3ccccc3)o2)no1
-0.2 | · | Cc1nc2sc(C(c3ccco3)N3CCN(c4cccc(Cl)c4)CC3)c(O)n2n1 (stereo unspecified)
-1.6 | i | Cc1ccccc1-c1nc2ccccc2c(=O)n1C1CCS(=O)(=O)C1 (stereo unspecified)
-1.8 | · | COc1ccc(CN2C(=O)c3ccccc3C2C(=O)NCC2CCCO2)c(OC)c1 (stereo unspecified)
-7.3 | · | CCOC(=O)c1ccc2c(c1)N(Cc1ccccc1C)C(=O)c1ccccc1S2=O (stereo unspecified)
1.8 | i | Cc1ccc(C2/C(=C(/O)c3cnn(-c4ccccc4)c3C)C(=O)C(=O)N2CCN2CCOCC2)o1 (stereo unspecified)
0.2 | · | C=CCNC1=C(Cl)C(=O)N(c2ccccc2Cl)C1=O
-0.5 | i | CC(=O)OC1CSc2nc3ccccc3n2C1 (stereo unspecified)
1.4 | · | COC(=O)C(Nc1nccs1)(OC)C(F)(F)F (stereo unspecified)
2.1 | · | COc1ccc(C2N(c3cc(Cl)ccc3OC)C(=O)C3CCCN32)cc1OC (stereo unspecified)
-0.7 | · | CC(=O)c1c(C)[nH]c(C(=O)NCCCN2CCCC2)c1C
1.2 | · | CCC(=O)NCCNC(=O)c1c(SC)nsc1SC
0.0 | · | c1ccc(-c2noc(CSc3nnnn3-c3ccccc3)n2)cc1
1.0 | · | Cc1ccc(Cn2c(=S)[nH]c3ccc(N4CCOCC4)cc3c2=O)o1

A portion from further up, as a working copy:
Proteasome disasm | VCAM-1 rise | Structure
1.2 | · | CCC(=O)NCCNC(=O)c1c(SC)nsc1SC
0.0 | · | c1ccc(-c2noc(CSc3nnnn3-c3ccccc3)n2)cc1
1.0 | · | Cc1ccc(Cn2c(=S)[nH]c3ccc(N4CCOCC4)cc3c2=O)o1

Next section:
Proteasome disasm | VCAM-1 rise | Structure
17 | · | COc1cccc2sc(Nc3nc(-c4ccccn4)cs3)nc12
-0.7 | i | Cc1noc(C)c1COc1cccc(C(=O)Nc2ccc(C#N)cc2)c1
-0.1 | · | O=C1N(CN2CCC3(CC2)OCCO3)c2ccccc2C12OCCCO2
-0.6 | · | CCSc1nnc(NC(=O)CSc2nccn2-c2cc(C)cc(C)c2)s1
4.0 | · | c1csc(Cc2nc(-c3ccc(-n4cccc4)cc3)no2)c1
1.0 | i | CCOC(=O)CCC(=O)c1c(C)oc2ccc(OC)cc12
0.7 | · | COc1cccc(-c2cc(C(=O)N3C(C)CCCC3C)no2)c1 (stereo unspecified)
1.0 | · | COCCCNC(=O)Cn1nc(-c2ccc(C)cc2)ccc1=O
0.5 | · | CCN(CC)CCCNC(=O)c1nn(-c2ccccc2OC)c(=O)c2ccccc12
-0.9 | i | COc1cccc(N2CCN(Cc3nc(N)nc(Nc4ccccc4OC)n3)CC2)c1
0.1 | · | CCOc1ccc(CC(=O)N2CCN(c3ccc(N4CCOCC4)nn3)CC2)cc1OCC
? | i | CN(C)C(CN1C(=O)C2CC=CCC2C1=O)c1cn(C)c2ccccc12 (stereo unspecified)
-1.1 | · | O=C(C1CCN(S(=O)(=O)N2CCOCC2)CC1)N1CCOCC1
0.3 | i | COc1ccc(C)cc1NC(=O)c1nc2nc(C)cc(C)n2n1
0.8 | · | COc1cccc(N2CCN(S(=O)(=O)c3ccc4nc(-c5ccccc5)[nH]c4c3)CC2)c1
8.1 | · | CCOc1ccccc1NC(=O)CSc1nnc(Cn2c(=O)sc3ccccc32)n1C
-0.2 | · | COC(=O)CC1Oc2ccc(C)cc2NC1=O (stereo unspecified)
-0.4 | · | O=C(C1CCCN1S(=O)(=O)c1cccc2cccnc12)N1CCc2ccccc2C1 (stereo unspecified)
1.1 | · | NC(=O)C1(N2CCCCC2)CCN(S(=O)(=O)c2cc(Cl)ccc2Cl)CC1
0.6 | · | Cc1onc(-c2ccccc2)c1C(=O)N1CCN(C/C=C/c2ccccc2)CC1
2.5 | i | O=S(=O)(c1ccc(OCC(O)CN2CCc3ccccc3C2)cc1)N1CCOCC1 (stereo unspecified)
-1.8 | i | CCOC(=O)c1oc2ccccc2c1NC(=O)c1cccc(OC)c1OC
-1.2 | · | Cc1ccc(C)c(C(C)NC(=O)C2C3CCC(O3)C2C(=O)O)c1 (stereo unspecified)
-1.0 | i | C=C(C)Cn1c(CCNC(=O)CC)nc2ccccc21
5.1 | 31 | Cc1sc(NC(=O)CSc2nnc(COc3ccccc3)n2C)c(C#N)c1C
1.4 | · | COc1cc(-c2nc3cnccn3c2Nc2ccccc2)ccc1O
14 | · | FC(F)(F)c1cccc(N2Cc3ccccc3C2)c1
2.1 | i | Cc1nc2ccccc2c(=O)n1/N=C/c1ccncc1
0.8 | · | COc1ccccc1OCC(=O)N(Cc1nc(-c2ccc(Cl)cc2)no1)C(C)C
1.4 | i | COC(=O)c1ccc(CSc2nnc(-c3ccncc3)o2)o1
0.9 | · | CCCS(=O)(=O)N1CCC(C(=O)NCCCOCC)CC1
9.4 | i | Cc1nc(SCC(=O)c2c[nH]c3ccccc23)n[nH]1
0.8 | · | CCOC(=O)C1=C(c2ccccc2)N(C)C(=O)NC1c1ccc(O)c(OC)c1 (stereo unspecified)
-1.2 | · | CCc1nnc(NC(=O)CSc2nnc(-c3c[nH]c4ccccc34)n2CC)s1
-1.4 | · | O=C(Nc1ccccc1O)c1ccc(Cl)cc1
-0.1 | i | Cc1ccc(S(=O)(=O)N(CC(=O)NCc2ccco2)Cc2ccccc2F)cc1
0.1 | · | NS(=O)(=O)c1ccc(CCNC(=O)NC2(C(F)(F)F)Oc3ccccc3O2)cc1
-3.4 | i | Cc1ccc(-c2nn(-c3ccccc3)cc2CN(Cc2ccccc2)C(=O)CCC(=O)O)o1
0.2 | i | O=C(Cn1c(=O)n(CC2CCCO2)c(=O)c2ccccc21)c1ccccc1 (stereo unspecified)
-2.8 | · | COc1ccc(-n2nc3c(c2NC(=O)c2cc4ccccc4oc2=O)CS(=O)(=O)C3)cc1
2.3 | · | COc1ccccc1OCc1ccc(C(=O)N2CCN3CCCC3C2)cc1 (stereo unspecified)
1.0 | i | CC(C)CCn1c(NCCc2ccccc2)nc2c1c(=O)n(C)c(=O)n2C
-0.4 | i | Cc1cccc2cc(CN(Cc3nnnn3Cc3ccco3)C3CCCC3)c3nnnn3c12
-0.4 | · | COc1ccc(-c2cc(C(F)F)n3ncc(C(=O)NCCCN4CCCC4=O)c3n2)cc1
-1.4 | · | O=C(NCc1ccc2c(c1)OCO2)c1cnc2ccccn2c1=O
-2.0 | · | O=C(c1ccc2c(c1)OCO2)N1CCN=C1SCc1ccccc1
-0.7 | · | CCOC(=O)N1CCC(Nc2cc(C)nc3c(-c4ccccc4OC)c(C)nn23)CC1
-2.2 | · | COc1ccc(N2CCN(C(=O)CCS(=O)(=O)c3cccc4nsnc34)CC2)cc1

Gathered by group: the compounds so far with two or more sulfur atoms.
Proteasome disasm | VCAM-1 rise | Structure
0.4 | · | O=C(CCCNS(=O)(=O)c1cccc2nsnc12)NCc1ccccc1
1.2 | · | Cc1cc(S(=O)(=O)N2CCCC2)c(C)s1
1.2 | · | CCC(=O)NCCNC(=O)c1c(SC)nsc1SC
17 | · | COc1cccc2sc(Nc3nc(-c4ccccn4)cs3)nc12
-0.6 | · | CCSc1nnc(NC(=O)CSc2nccn2-c2cc(C)cc(C)c2)s1
8.1 | · | CCOc1ccccc1NC(=O)CSc1nnc(Cn2c(=O)sc3ccccc32)n1C
5.1 | 31 | Cc1sc(NC(=O)CSc2nnc(COc3ccccc3)n2C)c(C#N)c1C
-1.2 | · | CCc1nnc(NC(=O)CSc2nnc(-c3c[nH]c4ccccc34)n2CC)s1
-2.2 | · | COc1ccc(N2CCN(C(=O)CCS(=O)(=O)c3cccc4nsnc34)CC2)cc1

(continued)
Proteasome disasm | VCAM-1 rise | Structure
0.2 | i | N#CC1=C(N)SC(N)=C(C#N)C1c1ccc(C(F)(F)F)cc1
-1.0 | i | CCN(CC)CCNC(=O)C1CCN(S(=O)(=O)N2CCCCC2)CC1
2.9 | i | CCCOc1nc(N)c(C#N)c(-c2ccccc2F)c1C#N
-4.4 | · | CCOc1ccc(NC(=O)N(CCN(C)C)C(C)c2ccncc2)cc1 (stereo unspecified)
5.2 | · | COc1cc(NC(=O)C2CCCN(S(=O)(=O)c3cccc4nsnc34)C2)cc(OC)c1 (stereo unspecified)
-1.7 | i | Cc1ccc2cc(C#N)c(NCCCNC(=O)C3CCCO3)nc2c1 (stereo unspecified)
1.4 | · | COc1ccc(N(CC(=O)NC2CCCCCCC2)S(=O)(=O)c2c(C)nn(C)c2C)cc1
0.0 | i | Cc1cc(N2CCN(C)CC2)nc(N2CCOCC2)n1
0.7 | · | CCOC(=O)c1sc2ncnc(N3CCN(c4ccc(OC)cc4)CC3)c2c1C
0.6 | · | CCOC(=O)N1CCN(C(c2ccccc2)c2sc3nc(C)nn3c2O)CC1 (stereo unspecified)
0.7 | i | CN(C)CCCNC(=O)CCC1CCCCC1
0.5 | · | Cc1cccc(N2CCN(c3nc4ccccc4n4cnnc34)CC2)c1C
0.8 | i | CC(C)OC(=O)CCCCCN1C(=O)CSC1=S
0.3 | · | O=C(NCCCc1ccccc1)c1cnc2n(c1=O)CCS2
-8.3 | · | CN(C)C(=O)N1CCCC(C(=O)NCc2cccs2)C1 (stereo unspecified)
-0.5 | · | Cc1cnc(N)c2c(=O)oc3ccccc3c12
-0.6 | · | COc1cc(C(=O)N2CCN(C(=O)c3ccccc3)CC2)cc(OC)c1OC
-0.2 | · | CCOC(=O)N1CCN(C(=O)C2CCN(S(=O)(=O)CC)CC2)CC1
1.2 | · | Cc1ccccc1-c1noc(-c2cccs2)n1
-0.1 | · | O=C(CN1CCN(CC(=O)Nc2ccccc2C(F)(F)F)CC1)Nc1ccccc1F
-0.5 | · | COC(=O)c1ccc(NC(=O)C2CCCN(S(=O)(=O)c3cnc[nH]3)C2)cc1 (stereo unspecified)
-4.0 | · | O=C(CCn1c(=S)[nH]c2ccccc2c1=O)N1CCN(c2ccccn2)CC1
-0.7 | · | COc1cccc(OC)c1C(=O)N1CCN=C1SCc1cccnc1
-0.7 | · | N#CCCN1CCN(S(=O)(=O)c2ccc(S(=O)(=O)NC3CC3)cc2)CC1
-2.1 | i | Cc1ccc(CN2C(=O)CCC2C(=O)NCCCN2CCCC(C)C2)cc1 (stereo unspecified)
-0.1 | · | CCC(Sc1ncccc1C(=O)O)C(=O)N1CCOCC1 (stereo unspecified)
0.9 | · | COc1ccc(Cl)cc1S(=O)(=O)N1CCN(C(=O)COc2ccccc2)CC1
-1.6 | i | O=C(O)Cc1ccccc1C(=O)O
2.3 | · | CC(C)Sc1oc(-c2ccco2)nc1S(=O)(=O)c1ccc(F)cc1
-0.2 | i | CC(=O)NC(CCS(C)(=O)=O)C(=O)Nc1cccc(C)c1 (stereo unspecified)
-1.8 | i | CCOC(=O)C(CC)n1nc(C)n2c(cc3sccc32)c1=O (stereo unspecified)
? | i | CC(=O)NCc1ccc(C(=O)CSc2nnc(-c3ccncc3)n2Cc2ccccc2)o1
3.1 | i | COc1ccc(Cc2nn3c(-c4cc(OC)c(OC)c(OC)c4)nnc3s2)cc1
-0.9 | · | N#CCCN1CCN(Cc2cc(-c3ccccc3)ccc2O)CC1
3.4 | · | CCOC(=O)c1c(C)c(C(=O)N2CCc3ccccc3C2)c(C)n1CC
0.2 | · | CSC1=NCCN1C(=O)c1cccs1
